# High-throughput results deposited in PubChem by several laboratories.
# Mtb hypoxia rep = inhibitors of hypoxia-regulated fluorescent reporter in Mycobacterium tuberculosis; M. tuberculosis hypoxia-regulated fluorescent reporter, fluorescence; fluorescence inhibition, % (no concentration beside the values); hit rate 0.1% among 300,000; AID 1159583;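 active = 35 to 45% if threefold the growth effect, above 45% if 1.5-fold the growth effect; inactive = the rest, general growth blockers included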;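 also: wells of about 50 µL received 100 nL stock; 0% = vehicle wells and 100% = reference inhibitor wells; whole bacteria with a GFP reporter of the hypoxia response; strong numbers were not always called active; many hits fall short of the cut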
# RN4220 kill = S. aureus RN4220 growth inhibition; OD600, 16 h; inhibition, % (no concentration beside the values); hit rate 0.33% among 330,000;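 active = z-score of -3 or lower and OD600 up to 0.18 on both plates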;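 also: plate controls were untreated cells for no effect and reference antibiotic for full effect; stock transfer was 100 nL into about 80 µL; one replicate is shown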
# ugtP null kill = growth inhibition of S. aureus ugtP deletion strain | S. aureus RN4220 ugtP deletion, OD600 growth, 16 h; some inactives read as strong as hits | growth inhibition, % (concentration not given with the values) | hit rate 0.54% among 330,000 | AID 1259309;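 active = z-score under -3 and OD600 up to 0.15 on both plates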;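 also: plate controls were untreated wells for no effect and antibiotic for full effect; wells of about 80 µL received 100 nL stock; the first replicate is given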
# Bead autofluor = flagged as autofluorescent in microsphere protease counterscreen; compound autofluorescence counterscreen, microsphere flow cytometry; active compounds read high; fluorescence intensity (no concentration beside the values); hit rate 3.1% among 360,000; AID 624483;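 active = at least 3 SD above the mean of all compounds, about 16000 in these data; inconclusive = too few beads counted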;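 also: 100 nL of 1 mM stock went into each well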
# PrP UTR inh = inhibition of PrP 5' UTR reporter expression | hit rate 0.35% among 340,000 | AID 488862 | inhibition, % (no concentration beside the values) | cell-based PrP 5' UTR mRNA reporter, plate reader;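 active = every replicate at 50% or more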;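 also: 0 = median of the neutral control wells; tested in H4 reporter cells; numbers are from one replicate; inactives centre near -14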
# BJeLR viability = BJeLR cell viability loss. hit rate 0.17% among 300,000. inhibition, % (concentration not given with the values). AID 1554. BJeLR (HRASV12) viability, CellTiter-Glo ATP luminescence, 48 h; reference of the scale not given here;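 active = replicate mean above 50%; inconclusive = above 50% but judged a plate artefact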;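 also: 50 nL library stock added to about 25 µL; numbers are from one replicate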
# Mtb hypoxia rep growth = also measured in Mtb hypoxia rep; calls as there; growth inhibition, %; measured here: M. tuberculosis growth (absorbance);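 0% = vehicle and 100% = reference antibiotic; read after six days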
# * = called active by the depositor; ? = inconclusive; . = no result given. Rows are unselected. Share with any hit: about 4%.
Structure,Mtb hypoxia rep,Mtb hypoxia rep growth,BJeLR viability,PrP UTR inh,Bead autofluor,RN4220 kill,ugtP null kill
CCOc1ccc2nc(NC(=O)c3c([N+](=O)[O-])cnn3CC)sc2c1,13,7,10,-13,10769,-6.9,-13
Cc1cc(=O)oc2c3c(cc(OCC(=O)N[C@H](C(=O)O)c4ccccc4)c12)OC(C)(C)CC3,.,.,-8,-10,4114,2.7,-7
Cc1ccc(C)c(NC(=O)NNS(=O)(=O)c2ccc(C)c(C)c2)c1,12,7,-5,1,3972,5.5,8
COC(=O)NCc1ccc2c(c1)OCO2,9,12,-18,-7,9756,2.5,0
CCc1ccccc1NNC(=O)c1snnc1C,0,-4,2,-10,3557,2.1,10
N#Cc1cccc(S(=O)(=O)NNC(=O)C23CC4CC(CC(C4)C2)C3)c1,6,7,.,-22,3546,1.2,-2
CCCC1=NN(C(=O)Cc2ccc(OC)c(OC)c2)C(O)(C(F)(F)F)C1 (centres undefined),3,-5,-7,-24,5799,2.0,1
N/C(=N\OC(=O)c1ccccc1Cl)c1ccccn1,0,2,22,76*,10878,4.4,-1
COc1ccc(C2=CC(c3ccc(C)cc3)n3nnnc3N2)cc1 (centres undefined),-28,-12,-6,0,5951,-1.7,-9
COC(=O)Nc1nc2ccc(SC(C)C)cc2[nH]1,0,13,.,-16,5360,4.4,-4
COC(=O)C(CC(C)C)NS(=O)(=O)c1ccccc1 (centres undefined),22,15,.,.,.,7.0,4
CCOC(=O)c1cn(CC(=O)Nc2ccc(C(C)C)cc2)nn1,6,3,2,-9,.,2.7,6
O=C1CC(C(=O)Nc2ccc(F)cc2)n2cnnc2N1 (centres undefined),16,9,-22,-8,3355,1.3,3
O=C(NN=C(CC(=O)c1cccs1)C(F)(F)F)c1ccc(O)cc1,6,15,.,.,.,5.3,58
Cc1ccc(-c2cc(C(=O)NCCCn3ccnc3)c3ccccc3n2)s1,6,7,-1,5,2654,7.2,-5
Cc1cc(C)c(C)c(S(=O)(=O)N(C)CCc2ccccn2)c1C,3,-1,.,-2,4845,4.1,-1
S=C(c1ccc(N2CCCC2)cc1)N1CCCCC1,7,8,.,-46,3151,17,10
O=C(c1ccccc1)C1CCc2occc2C1=O (centres undefined),.,.,9,-18,.,-0.6,10
COc1ccc(CNC(=O)c2sc(=S)n(-c3ccccc3)c2N)cc1,0,5,-4,10,4393,-0.2,4
O=C(CSc1ccc(Cl)cc1)NC1CCCc2ccccc21 (centres undefined),6,7,5,-7,1986,3.1,-9

# Just ugtP null kill and Mtb hypoxia rep growth, for 2 of the compounds above:
structure	ugtP null kill	Mtb hypoxia rep growth
CCOC(=O)c1cn(CC(=O)Nc2ccc(C(C)C)cc2)nn1	6	3
S=C(c1ccc(N2CCCC2)cc1)N1CCCCC1	10	8

# (listing goes on)
Structure,Mtb hypoxia rep,Mtb hypoxia rep growth,BJeLR viability,PrP UTR inh,Bead autofluor,RN4220 kill,ugtP null kill
O=C(Nc1ccc(C(=O)N2CCCCC2)cc1)c1ccc(Br)cc1,5,3,4,-14,2568,-14,-8
Cc1cccc(NC(=O)C2C(C(=O)O)C3C=CC2C32CC2)c1C (centres undefined),.,.,9,-8,5639,-2.0,-3
CC12CCC(C(=O)O)(c3nc4cc([N+](=O)[O-])ccc4nc31)C2(C)C (centres undefined),3,-12,-10,10,3311,3.6,9
C[C@@H]1C=C[C@](Cc2ccccc2)(C(=O)NCCc2c[nH]c3ccccc23)N1C(=O)c1ccccc1,.,.,-5,-19,4026,.,.
CNC(=S)N/N=C/c1ccc(-c2ccc(C(=O)O)cc2)o1,.,.,52*,9,4467,.,.
CC1CCCCN1S(=O)(=O)c1ccc2c(c1)C(C)(C)C(=O)N2C (centres undefined),.,.,-6,2,4544,2.7,8
CC(=O)Nc1ccc(-n2c(C)ccc2C)cc1,10,5,-16,-31,4721,5.2,5
CCc1ccc(OCC(=O)NNC(=O)c2cnccn2)c(Br)c1,5,28,5,12,5695,5.7,-2
COc1ccc(C(=O)Nc2cc(OC)c(Cl)cc2Cl)cc1,11,-3,8,-17,4565,5.8,3
NC(=O)/C(=C\c1ccncc1)c1cccc2ccccc12,-13,-5,-1,-1,4220,0.9,-2
O=C(CC1C(=O)NCCN1Cc1c(F)cccc1Cl)NCCC1=CCCCC1 (centres undefined),4,-3,-1,-16,3469,6.2,1
COc1cc(CCC(=O)OCC(=O)NCCc2ccc(S(N)(=O)=O)cc2)cc(OC)c1OC,-9,1,.,-10,3625,-0.6,0
O=C(C=Cc1cccs1)NCc1cccnc1,10,9,.,.,.,4.6,-3
O=C(NCC1CCCO1)C1CCCN1C(=O)Nc1ccccc1[N+](=O)[O-] (centres undefined),-12,-9,-5,-42,3992,0.8,6
COc1ccc(C(=O)CN(C(=O)c2ccc(Cl)cc2)N2C(=O)C3CCCCC3C2=O)cc1 (centres undefined),4,12,2,-12,11113,2.8,7
Cc1cc(=O)[nH]c(-c2ccc(C(F)(F)F)cc2)n1,6,-6,-16,-33,4490,3.0,6
Cc1cccc(OCC(=O)NCCNC(=O)c2cnccn2)c1,-3,7,5,5,4294,1.1,1
COc1cc(CCC(=O)Nc2ccc(C)c(S(=O)(=O)N3CCCCCC3)c2)cc(OC)c1OC,5,1,.,-4,?,4.0,1
COc1ccccc1NC(=O)CSc1nnc(-c2ccco2)n1Cc1ccco1,1,3,4,-4,19643*,2.5,-10
CC(C)(O)C#Cc1ccc(C(=O)N2CCN(c3ccccc3)CC2)cc1,17,14,0,0,2138,2.7,13
COc1ccc(Cl)cc1-n1c(C)ccc1C,-4,-1,-9,-16,4323,2.6,5
O=S(=O)(NC1CCCCC1Oc1ccccc1)c1ccccc1 (centres undefined),8,3,-9,3,2638,11,1
O=C(O)Cn1cc(C(=O)c2ccccc2F)c2ccccc21,11,9,-20,-24,3712,1.5,5
CCn1c(NC(=O)c2ccco2)c(-c2ccccc2Cl)c(=O)c2ccccc21,1,-1,-4,-11,23199*,1.7,0
CCOc1cc2ccccc2cc1C(=O)Nc1ccccn1,.,.,-10,-36,3649,.,.
CCn1c(SCc2ccc(C)cc2)nnc1-c1nn(-c2ccccc2)ccc1=O,.,.,2,-3,3592,13,-6
CCOC(=O)C1=C(c2ccccc2)Nc2ncnn2C1c1cc(OC)ccc1OC (centres undefined),1,3,3,10,21867*,4.0,8
CC(=NNC(=O)Cc1ccc(Cl)cc1)c1ccccc1O,-3,8,.,.,.,-7.0,-5
CCCC(C)NC(=O)CN(c1ccc2c(c1)OCCO2)S(=O)(=O)c1ccccc1 (centres undefined),-7,11,-1,-5,3535,1.6,-1
COc1ccc(/C=C/c2c([N+](=O)[O-])c(=O)n(C)c(=O)n2C)c(OC)c1,13,5,-6,-11,3040,3.1,2
CC(C)C(=O)Nc1ncc(Cc2ccccc2Cl)s1,4,4,-7,-17,4168,2.6,-1
COc1ccc(-c2c(=O)n(OC)c3ccccc3[n+]2[O-])cc1OC,4,3,1,-15,2971,0.7,0
CC(NC(=O)CCOc1ccccc1)c1ccccc1 (centres undefined),.,.,5,-5,2941,1.9,7
Cc1ccc(C(O)c2cccnc2)o1 (centres undefined),0,7,-5,-16,9164,5.8,-3
NC(=O)C1CCN(C(=O)CN2CCCc3ccccc32)CC1,.,.,-5,-32,2072,3.2,0
COc1ccc(OC)c(C2/C(=C(/O)c3ccccc3)C(=O)C(=O)N2Cc2ccco2)c1 (centres undefined),5,3,6,0,2054,7.9,2
Cc1cccc(N/C(N)=N/c2nc(C)c(Cc3ccccc3)c(=O)[nH]2)c1,-5,1,.,-19,4247,2.6,-8
COc1ccc(C=NNC(=O)CCOc2ccccc2C)cc1OC,5,2,.,.,.,-2.6,14
Cc1ccc(C)n1-n1c(C)nc2scc(-c3ccccc3)c2c1=O,11,10,1,-35,21049*,-0.2,0
Cc1nnc2n(C)c(=O)c3c4c(sc3n12)COC(C)(C)C4,-8,3,-2,-22,5029,0.3,2
CCOC(=O)N1CCC(N2CCCC(C(=O)c3cccc(OC)c3)C2)CC1 (centres undefined),-5,-20,-13,-10,6267,2.9,11
COC(=O)C1CC1C(NS(=O)(=O)c1ccc2ccccc2c1)c1ccccc1 (centres undefined),11,7,.,.,.,13,-3
Cc1ccccc1C(=O)O,11,11,.,-12,4128,3.7,6
O=C(Nc1ccnn1C1CCN(Cc2cc(Cl)ccc2O)CC1)c1cccnc1,7,-1,-4,-31,5767,2.2,4
O=C(c1cc(C(=O)N2CCOCC2)c2nc3ccccc3n2c1)c1cc(Cl)cc(Cl)c1O,-19,-2,0,-27,4113,3.2,-2
O=C(CN1CCN(Cc2ccccc2)CC1)NN=C/C=C/c1ccco1,2,14,.,.,.,-0.2,1
COc1ccc(NC(=O)Cn2nnc(C(=O)NCc3ccc4c(c3)OCO4)c2N)cc1,-8,2,-17,-23,2042,7.2,4
COc1ccc(C(C(=O)NC(C)(C)C)N(C(=O)CNC(=O)c2cccs2)c2ccc(C(C)C)cc2)cc1OC (centres undefined),1,2,3,-26,10788,1.0,3
CC(=O)N(C(C)=O)c1nc(-c2ccccc2)cn1/N=C/c1ccccc1,.,.,-3,-16,3886,.,.
Cc1sc(N(C(=O)CCc2ccccc2)c2ccc(C(=O)O)cc2)nc1-c1ccccc1,1,10,-4,-15,4579,19,35
O=c1cc(CSc2nnc(COc3ccccc3)o2)c2ccccc2[nH]1,11,2,-3,5,3108,2.9,2
Cc1ccc(NC(=O)C2CCN(S(=O)(=O)c3ccc4c(c3)CCCC(=O)N4)CC2)cc1N(C)C,2,4,5,-10,5324,2.6,3
Cc1cc(C)cc(NC(=O)COC(=O)c2cc(=O)[nH]c(=O)[nH]2)c1,.,.,1,-11,2409,.,.
N#C/C(=C\c1ccccc1OCC(=O)O)c1nc2ccccc2[nH]1,-3,0,-7,-27,3637,4.8,8
Nc1nc(Br)c2ccccc2c1-c1ccccc1,11,8,3,-17,4604,2.2,2
COc1ccccc1C(=O)c1ccccc1C(=O)c1ccccc1,3,11,.,-6,4034,-0.5,-4
c1coc(-c2ccnc3ncnn23)c1,.,.,-1,-9,2465,.,.
COc1ccc(S(=O)(=O)N2CCOC2CNC(=O)C(=O)NCCCc2ccccc2)cc1 (centres undefined),3,1,-2,-10,6304,2.1,-1
O=C(O)c1ccc(Nc2cccc(F)c2)c([N+](=O)[O-])c1,5,-1,3,-7,3118,9.6,8
CC(=O)c1sc2nsc(SCCN3CCCC3)c2c1N,11,5,-14,-14,5307,0.9,4

# Additional compounds follow:
Structure,Mtb hypoxia rep,Mtb hypoxia rep growth,BJeLR viability,PrP UTR inh,Bead autofluor,RN4220 kill,ugtP null kill
COC(=O)c1sccc1NC(=O)c1c(Cl)cnn1C,3,9,4,-13,6103,7.3,3
Cc1cc(NC(=O)c2cc(-c3cccc(OCC(C)C)c3)nc3ccccc23)no1,2,5,9,-10,5785,-0.6,-5
O=C(c1ccc2c(c1)CCN2S(=O)(=O)c1ccccc1)N1CCN(c2ccc(F)cc2)CC1,1,-3,-6,2,4947,-4.1,-5
COCCCNC(=O)CSc1nc2ccccc2c(=O)n1CCc1ccc(S(N)(=O)=O)cc1,9,-5,8,-3,4141,2.0,7
CCOC(=O)C1C2COc3ccc(Cl)cc3C2N2C(=O)c3cc(C)ccc3NC(=O)[C@@]12C (some centres undefined),-2,2,.,.,.,0.6,-10
Cc1ccc(S(=O)(=O)N2C[C@@H]3c4ccccc4N(S(=O)(=O)c4ccc(C)cc4)[C@@H]3[C@@H](C)C2CC(=O)c2ccccc2)cc1 (some centres undefined),6,6,.,-18,3066,4.0,4

# Reprinted at random: 3 compounds from above, in no set order.
Structure,Mtb hypoxia rep,Mtb hypoxia rep growth,BJeLR viability,PrP UTR inh,Bead autofluor,RN4220 kill,ugtP null kill
CCOC(=O)C1C2COc3ccc(Cl)cc3C2N2C(=O)c3cc(C)ccc3NC(=O)[C@@]12C (some centres undefined),-2,2,.,.,.,0.6,-10
Cc1ccc(S(=O)(=O)N2C[C@@H]3c4ccccc4N(S(=O)(=O)c4ccc(C)cc4)[C@@H]3[C@@H](C)C2CC(=O)c2ccccc2)cc1 (some centres undefined),6,6,.,-18,3066,4.0,4
Cc1cc(NC(=O)c2cc(-c3cccc(OCC(C)C)c3)nc3ccccc23)no1,2,5,9,-10,5785,-0.6,-5
